Compound activity as filed in PubChem BioAssay.
HSD17B inh: qHTS Assay for Inhibitors of HSD17B4, hydroxysteroid (17-beta) dehydrogenase 4; 3-hydroxyacyl-CoA dehydrogenase type-2 (Homo sapiens), Q99714; recombinant HSD17B10, NADH fluorescence kinetic; many of its hits are not listed in these tables; Potency, µM (highest dose often 57.1 µM), without a hit: at the highest dose activity change, negative = inhibition, hits mostly inhibitors; 75,000 tested, 7.6% active; AID 893, 2007; active = well fitted inhibition curve with a large enough effect;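 also: the protocol describes HADH2 (HSD17B10) and not the HSD17B4 of the title; nearly all actives have a fitted effect of over 70% in size; most hits overshoot -100% by far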
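Activity followed as NADH fluorescence increase (ex 360, em 450 nm) every 30 seconds for 4 min, using final 90 uM beta-hydroxybutyryl CoA and 1 mM NAD+. Recombinant His-tagged enzyme, 20 nM, pH 9.0 Tris buffer, 15 min compound preincubation.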
Active calls of the source: *. % is scaled to controls: 0 for no effect and ±100 for the full control effect; potency is read from the fitted curve at half-maximal effect.

SMILES	HSD17B inh
CCC1C(=O)OCC1Cc1cncn1C (stereo not drawn)	17%

Only part of the results is shown; the hit share may differ from the screen's.
